NPYLR7 ag = mosquito NPYLR7 agonism | HEK293T NPYLR7/Galpha15, GCaMP6s calcium fluorescence | activation, % at 10 µM | 0.15% of 270,000 active | AID 1259423; in the data active means activation above about 40%;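 further: 0% = vehicle and 100% = reference agonist at the receptor; some compounds past the cut are filed as inactive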
NPYLR7 ag max-min = second read-out of NPYLR7 ag, no call of its own (marks repeat the call); activation, %; measured here: Max-Min RFU normalised activation; some inactives read as strong as hits;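 span of the calcium signal over five minutes; 0% = vehicle and 100% = native peptide agonist; compound fluorescence can raise it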
* hit, by the source's call.

Screening Cc1ccc(NC(=O)CSc2nc(=O)n(CCN3CCOCC3)c3c2CCC3)cc1Cl returned NPYLR7 ag -3 and NPYLR7 ag max-min -3.
Screening Cn1ccnc1SCCNc1nc2nonc2nc1N1CCSCC1 returned NPYLR7 ag -1 and NPYLR7 ag max-min -4.
O=C(C[n+]1ccc(NC(=O)c2ccccc2)c2ccccc21)c1ccccc1 was read as NPYLR7 ag -9 and NPYLR7 ag max-min -12.
Screening CCc1nc2c(OCc3ccc(S(C)(=O)=O)cc3)cccn2c1N(C)C(=O)Nc1ccccc1OC returned NPYLR7 ag 0 and NPYLR7 ag max-min -10.
`COc1ccc(C(=O)N2CCN(c3cc(Cl)nc(SCC(=O)NCc4ccccn4)n3)CC2C)cc1` (stereo not drawn) gave NPYLR7 ag 18 and NPYLR7 ag max-min 13.
For CCc1nnc(C2CCN(S(=O)(=O)CC)CC2)s1 the results were NPYLR7 ag -2 and NPYLR7 ag max-min 2.
For O[C@H]1C[C@@H]2CN(Cc3ccc(C4CCCCO4)o3)C[C@@H]2C[C@@H]1O (stereo partly drawn) the results were NPYLR7 ag 1 and NPYLR7 ag max-min 1.
CCN(Cc1nc2ccccc2c(=O)[nH]1)C(=O)COc1ccc(Cl)c(C)c1 was read as NPYLR7 ag 8 and NPYLR7 ag max-min 2.
Screening CC(NC(=O)CN1CCOc2ccccc21)c1ccc2c(c1)OCO2 (stereo not drawn) returned NPYLR7 ag 0 and NPYLR7 ag max-min -1.
COc1ccc(S(=O)(=O)N2CCN(c3ccc(NC(=O)c4ccc(F)cc4)cn3)CC2)c(OC)c1 was read as NPYLR7 ag 4 and NPYLR7 ag max-min 1.
For CN1CCCCC1CCNC(=O)c1ccc(NC2CCC(O)CC2)nc1 (stereo not drawn) the results were NPYLR7 ag -4 and NPYLR7 ag max-min -8.
`CN(C(=O)c1ccc(Cl)cc1)c1ccc(NC(=O)C2CCOC2)cc1` (stereo not drawn) gave NPYLR7 ag 3 and NPYLR7 ag max-min 16.
`Cc1cc(C(=O)N2CCC(C(=O)Nc3cccc(-c4ccco4)c3)CC2)nc(C)n1` gave NPYLR7 ag 4 and NPYLR7 ag max-min 1.
For O=c1c(Cl)c(N2CCCC2)cnn1-c1nc2ccccc2s1 the results were NPYLR7 ag 11 and NPYLR7 ag max-min 4.
`CCOC(=O)c1cccc(NC(=O)CSc2nccn3nc(-c4ccc(OC)cc4)cc23)c1` gave NPYLR7 ag -2 and NPYLR7 ag max-min -6.
COC(=O)N1CCC(NC(=O)CCCc2cc(C)sc2C)C1 (stereo not drawn) was read as NPYLR7 ag 5 and NPYLR7 ag max-min 4.
`C=CCN(CC=C)C(=O)COc1ccc2c(=O)c(Oc3ccc(-c4ccccc4)cc3)coc2c1` gave NPYLR7 ag -3 and NPYLR7 ag max-min -9.
For CC1(C(=O)NCCc2c[nH]c3ccccc23)CCN1Cc1ccc(-n2ccnc2)cc1 (stereo not drawn) the results were NPYLR7 ag 7 and NPYLR7 ag max-min 4.
O=S(=O)(Nc1ccc(OC(F)F)cc1)c1ccc(F)c(F)c1F was read as NPYLR7 ag -2 and NPYLR7 ag max-min -2.
Screening CCCc1c(C)nn(-c2ccc(C(=O)N3CCOCC3)cc2)c1C returned NPYLR7 ag 2 and NPYLR7 ag max-min -1.
For COc1ccc(S(=O)(=O)NCCCN2CCOCC2)cc1N1CCN(C(=O)c2cc(F)ccc2Cl)CC1 the results were NPYLR7 ag 21 and NPYLR7 ag max-min 9.
`C/C(=N/NC(=O)COc1ccccc1[N+](=O)[O-])c1cccc(NC(=O)c2ccncc2)c1` gave NPYLR7 ag 2 and NPYLR7 ag max-min 1.
COc1ccc(S(=O)(=O)N2CCC(CCc3ccccc3)CC2)cc1 was read as NPYLR7 ag 3 and NPYLR7 ag max-min -1.
For CCOc1ccccc1-c1ccc(C(=O)Nc2cccnc2)o1 the results were NPYLR7 ag -2 and NPYLR7 ag max-min -2.
`O=C(C1CCC1)N(Cc1ccc(F)cc1F)CC1CC(c2ccc(F)cc2)=NO1` (stereo not drawn) gave NPYLR7 ag 10 and NPYLR7 ag max-min 17.
For CCn1c(SCC(=O)Nc2cc(C)on2)nc2c([nH]c3ccccc32)c1=O the results were NPYLR7 ag -1 and NPYLR7 ag max-min -2.
`Fc1ccc(-c2[nH]ncc2CNC(Cn2ccnc2)c2ccccc2)cc1` (stereo not drawn) gave NPYLR7 ag 16 and NPYLR7 ag max-min 7.
For CCN(CC)CCNC(=O)c1c(O)nc2ccccn2c1=O the results were NPYLR7 ag 0 and NPYLR7 ag max-min 19.
`COc1ccc(-c2cc(=O)c3ccccc3o2)cc1` gave NPYLR7 ag -5 and NPYLR7 ag max-min -10.
`CCCCC1CN(CCNC(=O)Cc2sc(C)nc2C)Cc2ccccc2O1` (stereo not drawn) gave NPYLR7 ag -2 and NPYLR7 ag max-min -3.
`Cc1ccc(NC(=O)c2c(C)noc2C)c(F)c1` gave NPYLR7 ag -9 and NPYLR7 ag max-min -10.
For C=CCNCCOc1ccc(C(C)C)cc1 the results were NPYLR7 ag 5 and NPYLR7 ag max-min 13.
Screening Cc1oc(-c2ccccc2)nc1Cn1cc(Cl)c(=O)[nH]c1=O returned NPYLR7 ag 0 and NPYLR7 ag max-min -1.
Screening Cc1cc(C)c(S(=O)(=O)N2CCCC2)c(C)c1 returned NPYLR7 ag 12 and NPYLR7 ag max-min 10.
For CC(c1ccc(F)cc1)N(C)S(=O)(=O)Cc1ccc(Br)cc1F (stereo not drawn) the results were NPYLR7 ag -8 and NPYLR7 ag max-min 503.
For CCCCC(C(N)=O)C(N)=O the results were NPYLR7 ag 10 and NPYLR7 ag max-min 12.
Cc1nc(Cn2ccnc2-c2ccc(N(C)C)nc2)nc2c1CCCC2 was read as NPYLR7 ag 0 and NPYLR7 ag max-min -4.
`CCC(NCc1cnc(-c2ccc3ccccc3c2)nc1)c1nc(C)no1` (stereo not drawn) gave NPYLR7 ag 7 and NPYLR7 ag max-min 4.
`CCN1CC(COC(C)(C)C)Oc2ncccc2S1(=O)=O` (stereo not drawn) gave NPYLR7 ag -2 and NPYLR7 ag max-min 8.
For O=C(Nc1ccc(Cl)cc1)c1cccc(Nc2cnc3ccccc3n2)c1 the results were NPYLR7 ag -2 and NPYLR7 ag max-min 3.
Screening CC1CCC2(CC1)NC(=O)N(NC(=O)c1cc3c(s1)CCCCC3)C2=O (stereo not drawn) returned NPYLR7 ag 0 and NPYLR7 ag max-min -2.
O=C(NCC(c1ccc2c(c1)OCO2)N1CCN(c2ccccc2)CC1)OCc1ccccc1 (stereo not drawn) was read as NPYLR7 ag 1 and NPYLR7 ag max-min -6.
For COCCN(Cc1ccccc1OC)CC(O)COc1ccccc1C (stereo not drawn) the results were NPYLR7 ag 13 and NPYLR7 ag max-min 26.
Screening Cc1ccc(-c2nn(CC(=O)N3CCCCC3)cc2Br)cc1C returned NPYLR7 ag -1 and NPYLR7 ag max-min 60.
`CCOc1cc(C=CC(=O)c2ccc(Cl)cc2)ccc1O` gave NPYLR7 ag 15 and NPYLR7 ag max-min 7.
`CC1=NN(c2ccccc2)C(=O)/C1=C\c1cc(C)n(-c2cc(C)cc(C)c2)c1C` gave NPYLR7 ag 1 and NPYLR7 ag max-min -3.
COCCCN1C(=O)CCC(C(=O)O)C1c1cccc2c1OCCO2 (stereo not drawn) was read as NPYLR7 ag 15 and NPYLR7 ag max-min 14.
`CC(C)COC(=NCc1ccccn1)NC(=O)c1cccc(C(F)(F)F)c1` gave NPYLR7 ag -8 and NPYLR7 ag max-min 2.
For CC(C)SC(NC(=O)OCc1ccccc1)C(=O)NC(c1ccc(S(C)(=O)=O)cc1)c1ccc2c(c1)CCO2 (stereo not drawn) the results were NPYLR7 ag -8 and NPYLR7 ag max-min -13.
Screening CC(=O)O[C@@H](C)C(=O)Nc1ccc2[nH]cc(CCN3CCN(c4cccc(C(F)(F)F)c4)CC3)c2c1 returned NPYLR7 ag 5 and NPYLR7 ag max-min 2.
Screening O=C(COc1ccc(Cl)cc1)N1CCCC(OCc2cccc(OC(F)(F)F)c2)C1 (stereo not drawn) returned NPYLR7 ag -2 and NPYLR7 ag max-min 3.
Screening COCCN(CC(=O)N(Cc1ccc(F)cc1)Cc1ccco1)C(=O)Nc1cccc(Br)c1 returned NPYLR7 ag -4 and NPYLR7 ag max-min 1.
Screening Cc1cccc(-c2nc(NC(=O)N3CCc4c([nH]c5ccccc45)C3)n[nH]2)c1 returned NPYLR7 ag 1 and NPYLR7 ag max-min -10.
Cc1cccc(-c2ccnc3nc(N4CCN(S(=O)(=O)c5c(C)cc(C)cc5C)CC4)nn23)c1 was read as NPYLR7 ag 30 and NPYLR7 ag max-min 16.
For CCOc1ccc(C2CC(c3c(O)cc(C)oc3=O)=Nc3ccccc3S2)cc1 (stereo not drawn) the results were NPYLR7 ag -5 and NPYLR7 ag max-min -16.
Screening COCc1c(C(=O)N2CCN(c3ccccc3C)CC2C)noc1C (stereo not drawn) returned NPYLR7 ag 21 and NPYLR7 ag max-min 15.
Nc1ncc(Br)cc1S(=O)(=O)NCc1ccc2c(c1)OCO2 was read as NPYLR7 ag 7 and NPYLR7 ag max-min 1.
`O=c1[nH]c(=O)n([C@H]2C[C@H](O)C(CO)O2)cc1I` (stereo partly drawn) gave NPYLR7 ag 0 and NPYLR7 ag max-min -1.
`COc1cccc(CN2CCC2(C)C(=O)Nc2cccc(Oc3ccccc3)c2)c1F` (stereo not drawn) gave NPYLR7 ag 7 and NPYLR7 ag max-min 2.
`NC(=O)c1ccccc1OCC(=O)C12CC3CC(CC(C3)C1)C2` gave NPYLR7 ag 2 and NPYLR7 ag max-min 1.
For CCOC(=O)CSc1ccc2nnc(-c3cccnc3)n2n1 the results were NPYLR7 ag -2 and NPYLR7 ag max-min -2.
`FC(F)(F)c1cnc(NN=Cc2ccncc2)c(Cl)c1` gave NPYLR7 ag 2 and NPYLR7 ag max-min 1.
`O=C1NC2=C(C(=O)N(Cc3ccc(F)cc3)C2)C(c2cccc(F)c2)N1` (stereo not drawn) gave NPYLR7 ag 11 and NPYLR7 ag max-min 15.
`Oc1ccc(-c2nccnc2N[C@@H]2CCN(Cc3ccccc3)C2)cc1` gave NPYLR7 ag -7 and NPYLR7 ag max-min -11.
Cc1cc(N2CCN(C3CCCC3)CC2)n2nc(C)c(-c3ccccc3)c2n1 was read as NPYLR7 ag 0 and NPYLR7 ag max-min -1.
Screening O=C(NN=Cc1ccccc1C(F)(F)F)c1cnccn1 returned NPYLR7 ag -5 and NPYLR7 ag max-min -4.
CC1(C)OC(c2cccc(O)c2)OC1(C)C was read as NPYLR7 ag 3 and NPYLR7 ag max-min -1.
CNC(=O)[C@@H]1C[C@H]2CN(C)C(=O)c3cccc(c32)N1C(=O)CCc1ccccc1 was read as NPYLR7 ag 3 and NPYLR7 ag max-min 14.
`Cc1cc(C(=O)CSc2nnc(-c3cc4c(s3)CCC(C)C4)o2)c(C)n1C` (stereo not drawn) gave NPYLR7 ag -2 and NPYLR7 ag max-min -3.
Screening Cc1cc(C)cc(N2CC(C)Cn3c2nc2c3c(=O)[nH]c(=O)n2C)c1 (stereo not drawn) returned NPYLR7 ag 3 and NPYLR7 ag max-min -1.
For CS(=O)(=O)CCCNC(=O)NC1CC(c2cccc(Cl)c2)C1 (stereo not drawn) the results were NPYLR7 ag 1 and NPYLR7 ag max-min 7.
Screening c1ccc(C(c2ccccc2)c2noc(CN(Cc3ccncc3)CC3CCCO3)n2)cc1 (stereo not drawn) returned NPYLR7 ag 0 and NPYLR7 ag max-min -5.
`Cc1cc(C(=O)N2CCCC(N3CCN(c4cccc(Cl)c4)CC3)C2)n(C)n1` (stereo not drawn) gave NPYLR7 ag 0 and NPYLR7 ag max-min -1.
For COc1cccc(-c2cc(-c3ccc(C(=O)N4CC=CC4)cc3)[nH]n2)c1 the results were NPYLR7 ag -3 and NPYLR7 ag max-min 6.
Screening CCCC1C=CCN1C(=O)c1cc(COc2ccc3c(c2)OCO3)[nH]n1 (stereo not drawn) returned NPYLR7 ag 2 and NPYLR7 ag max-min 1.

Compound activity as filed in PubChem BioAssay.

An excerpt; count on the stated rates, not on these rows.
